From PubChem
rRNA inh HTS – reduced GFP signal of wild-type E. coli, primary screen, bacterial rRNA inhibitor project, GFP/RFP fluorescence, OD600, single point; E. coli WT GFP vs humanized-ribosome RFP mutants, 24 h; stronger effect = lower value; DMSO median 0, no signal -100; GFP signal change (wild-type ribosome), % (no concentration beside the values); 350,000 tested, 1.6% active; AID 720706, 2013;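 active means significant combined selectivity score with lowered wild-type GFP, culture density cut under 30%, mutant RFP and density less affected; inactive means any of these conditions unmet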; further: one replicate is shown; some compounds called inactive have numbers as strong as hits
MLL AF4-AF9 inh – inhibitors of AF4 peptide binding to AF9, primary screen, biochemical, AlphaScreen, biotin-AF4 peptide, FLAG-AF9, single point; inhibition, % at 10 µM; 350,000 tested, 0.47% active; AID 651704, 2012;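 active means every replicate reaching a set inhibition limit, whatever the replicate mean, cut at about 25% in these data; inconclusive means mean inhibition reaches that limit but some replicates miss it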;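 further: 0% = plate neutral control median and 100% = total signal loss; the record names both 10 and 1 µM as test concentration; the first replicate is given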
Target sequence (P42568 whole entry, looked up): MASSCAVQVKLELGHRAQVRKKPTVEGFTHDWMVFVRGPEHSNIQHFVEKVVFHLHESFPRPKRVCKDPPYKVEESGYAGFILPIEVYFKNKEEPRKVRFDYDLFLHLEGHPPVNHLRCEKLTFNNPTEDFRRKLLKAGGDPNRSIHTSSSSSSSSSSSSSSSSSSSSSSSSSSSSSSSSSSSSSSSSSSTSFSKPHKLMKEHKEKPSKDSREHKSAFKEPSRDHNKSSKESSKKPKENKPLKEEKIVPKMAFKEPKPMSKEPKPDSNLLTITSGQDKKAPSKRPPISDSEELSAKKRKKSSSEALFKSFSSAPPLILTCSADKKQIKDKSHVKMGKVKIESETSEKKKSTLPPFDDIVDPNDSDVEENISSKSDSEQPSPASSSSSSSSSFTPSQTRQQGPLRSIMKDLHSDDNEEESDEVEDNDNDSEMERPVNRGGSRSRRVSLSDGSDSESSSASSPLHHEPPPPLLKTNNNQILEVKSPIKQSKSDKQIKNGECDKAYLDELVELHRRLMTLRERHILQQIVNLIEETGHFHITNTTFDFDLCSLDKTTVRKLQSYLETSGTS
Ecoli growth – E. coli growth inhibition, primary screen, OD600; OD600 absorbance (test concentration not listed); 330,000 tested, 0.21% active; Escherichia coli growth, 23 h; stronger effect = lower value;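 active means OD600 absorbance below the run mean of sample wells minus 3.6 SD, in any replicate, cut at about 0.56 in these data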;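 further: stock transfer was 300 nL into about 60 µL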
Beta cell apopt – inhibitors of cytokine-induced beta cell apoptosis, primary screen, luminescence; protection from apoptosis, % (test concentration not listed); AID 435005, 2010; 300,000 tested, 0.8% active; INS-1E cytokine-induced death, ATP luminescence, 48 h; percent of positive-control rescue, neutral wells zero;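 active means all replicates at 75% or more, or half of them and the mean; inconclusive means half reach 75% but not the mean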;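 further: 0% = cytokine-treated negative control wells and 100% = positive control rescue; higher means more ATP so stronger rescue from cytokine killing; wells of about 40 µL received 100 nL stock; the first replicate is given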
FGF22 binding – binders of human FGF22 protein, primary screen, FGF22 synaptogenesis inhibitor project, biophysical, thermal shift, single point; Fibroblast growth factor 22 (Homo sapiens), Q9HCT0; recombinant FGF22 thermal shift, SYPRO orange fluorescence; percent of sucrose octasulfate shift, DMSO zero; calls only at 9.99 µM; 340,000 tested, 1.5% active;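 active means melting point raised past a set limit in the mean and every replicate; inconclusive means no clear call; three in four hits are not shown here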
Target sequence (Q9HCT0 whole entry, looked up): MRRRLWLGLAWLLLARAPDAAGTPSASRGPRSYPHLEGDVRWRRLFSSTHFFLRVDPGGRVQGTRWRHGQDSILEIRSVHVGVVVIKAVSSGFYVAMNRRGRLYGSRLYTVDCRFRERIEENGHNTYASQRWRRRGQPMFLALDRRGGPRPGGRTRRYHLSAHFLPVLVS
Bfl-1 A1 inh – caspase 3/7 activation in MEF A1-2A-BIM cells, primary screen, A1 inhibitor project, cell-based, luminescence, HTS. 330,000 tested, 0.066% active. Caspase-Glo 3/7 luminescence, 3 h; percent of clofoctol response, vehicle zero. AID 2462, 2010. caspase activation, % (no concentration beside the values);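 active means over half of replicate activation scores above 10%, or exactly half above 10 with the replicate mean above 10; inconclusive means replicate mean below 10 yet half the replicates above 10; inactive means over half of replicates below 10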;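 further: wells of about 30 µL received 50 nL stock; many hits fall short of the cut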
T cruzi repl – inhibitors of intracellular T. cruzi growth, primary screen, luminescence, NIH3T3 host cells; T. cruzi beta-gal in NIH3T3, 90 h; inhibition, % (concentration not given with the values); 300,000 tested, 1.4% active;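 active means mean inhibition across valid replicates above about 55%, limit read from the data; inconclusive means mean below that limit but half or more replicates reach it; inactive means mean below it, under half of replicates reach it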;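 further: signal also drops with host cell toxicity which is not excluded here; 0% = plate median of DMSO wells and 100% = zero luminescence signal; higher percent means less beta-gal luminescence so fewer parasites; stock transfer was 50 nL into about 50 µL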
UCH37 DUB inh – inhibitors of human UCH37 deubiquitinase, primary screen, biochemical, Ub-AMC cleavage, fluorescence. Ubiquitin carboxyl-terminal hydrolase isozyme L5 (Homo sapiens), Q9Y5K5. purified proteasome/UCH37. 330,000 tested, 0.33% active. inhibition, % (no concentration beside the values);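 active means mean of two replicates above 20%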;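 further: 0% = compound-free wells with enzyme and 100% = wells lacking proteasome; stock transfer was 100 nL into about 20 µL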
Target sequence (Q9Y5K5 whole entry, looked up): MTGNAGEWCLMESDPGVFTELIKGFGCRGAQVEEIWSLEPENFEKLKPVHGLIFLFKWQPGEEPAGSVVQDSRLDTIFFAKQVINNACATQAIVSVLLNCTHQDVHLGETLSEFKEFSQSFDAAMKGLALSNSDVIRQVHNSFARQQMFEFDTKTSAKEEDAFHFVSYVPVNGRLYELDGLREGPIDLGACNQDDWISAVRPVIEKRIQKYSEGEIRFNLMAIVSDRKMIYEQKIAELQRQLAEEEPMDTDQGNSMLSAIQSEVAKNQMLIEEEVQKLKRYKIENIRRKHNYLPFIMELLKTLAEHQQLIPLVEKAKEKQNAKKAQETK
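Signal – fluorescence, ex 355 nm, em 460 nm · System – Proteasome-bound UCH37 · Input – 0.15 nM proteasome as dispensed · Timing – 30 min preincubation with enzyme, 25 min cleavage at room temperature · Read-out basis – percent inhibition of cleavage signal versus uninhibited and no-proteasome wells · Medium – Tris-HCl pH 7.4 with ATP-MgCl2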
rRNA inh HTS OD600 – also measured in rRNA inh HTS; calls as there; OD600 change, %; measured here: OD600 growth;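 optical density of the mix in the first replicate; 0 = DMSO median and -100 = no signal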
rRNA inh HTS RFP – recorded beside rRNA inh HTS, whose call it bears; RFP signal change, %; measured here: RFP humanized mutant strains;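 first replicate; 0 = DMSO median and -100 = no signal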
The depositor's hits bear a star; i = inactive; ? = inconclusive; / = not tested or not shown.

SMILES | rRNA inh HTS | rRNA inh HTS OD600 | rRNA inh HTS RFP | MLL AF4-AF9 inh | Ecoli growth | Beta cell apopt | FGF22 binding | Bfl-1 A1 inh | T cruzi repl | UCH37 DUB inh
CN(Cc1ccccn1)C(=O)c1ccc2nc(Cc3cccc(Cl)c3)oc2c1 | -20 | -20 | -0.2 | 2.8 | 0.69 | / | i | 1.0 | 6 | 3.6
O=C1C=C(c2ccc(Br)c3ccccc23)C[C@@H](c2ccc3c(c2)OCO3)C1 | 7 | 4 | 6.1 | 7.5 | / | -3 | i | -0.6 | / | /
O=C(N/C(=C\c1cccnc1)C(=O)N1CCC(O)CC1)c1ccccc1 | 3 | 5 | -2.2 | -0.1 | 0.67 | -2 | i | 0.9 | -3 | 1.3
O=C(c1ccc(NS(=O)(=O)c2ccc(F)cc2)cc1)N1CCCCC1 | -3 | -2 | 0.7 | -2.4 | 0.68 | 8 | i | 0.3 | 1 | 1.0
Nn1c(SCC(=O)Nc2ccc3c(c2)OCO3)nnc1-c1ccccc1 | / | / | / | / | 0.71 | -6 | / | 0.1 | -11 | 1.8
C[C@]12CS(=O)(=O)C[C@H]1SC(=S)N2c1ccccc1 | 31 | 11 | 1.0 | -0.7 | 0.66 | 1 | i | 1.0 | -30 | 5.1
CCOc1ccc(NC(=O)CN(C)C(=O)c2cc(S(=O)(=O)N3CCCCCC3)ccc2OC)cc1OCC | 0 | -1 | 1.4 | 0.6 | 0.64 | -6 | i | 0.5 | -2 | 2.1
CC1(C)SC(C)(C)N(C=O)C1C(=O)O (centres undefined) | 4 | 10 | 6.0 | -3.7 | 0.65 | / | i | / | / | -2.1
Cc1ccc(C(=O)CSc2nnnn2-c2ccccc2)o1 | -1 | 9 | -1.4 | -2.0 | 0.7 | 2 | i | -0.9 | -4 | 1.4
COc1ccc(OC)c(/C=C(\C)C(=O)c2c(C)cc(C)[nH]c2=O)c1 | / | / | / | 1.6 | 0.65 | -3 | i | -0.2 | -2 | 6.0
O=C(c1ccc2[nH]c(=O)c(=O)[nH]c2c1)N1CCc2ccccc2C1 | 10 | 4 | -3.2 | -0.7 | 0.71 | -11 | i | 1.8 | 4 | -62
COc1ccc(C2Nc3ccccc3C(=O)N2Cc2ccccc2)cc1OC (centres undefined) | 8 | 8 | 0.6 | 1.4 | 0.62 | -3 | i | -0.3 | -16 | -217
CCC1SC2=NC(C)=C(C(=O)OCCOC)C(c3ccc(C(=O)OC)cc3)N2C1=O (centres undefined) | / | / | / | / | 0.7 | -3 | / | 1.8 | -4 | 6.2
NC(=O)CC(NC(=O)c1ccccc1)c1ccc(N2CCN(c3ccccn3)CC2)c([N+](=O)[O-])c1 (centres undefined) | 10 | 10 | -0.2 | 0.3 | 0.68 | -5 | i | 0.4 | 0 | 2.2
COc1ccc(-n2ncc3c2CC(C)(C)CC3NC(=O)C2CCN(C(C)=O)CC2)cc1 (centres undefined) | 3 | 4 | -1.3 | -1.3 | 0.68 | -3 | i | 0.6 | 0 | 5.2
Cc1ccccc1NC(=O)C(=O)NCc1ccccn1 | / | / | / | / | 0.67 | -5 | / | -0.1 | 2 | -0.7
CCOC(=O)c1[nH]c(C)c(C(=O)N2CCN(C(=O)OCC)CC2)c1CC | / | / | / | / | 0.72 | / | / | 0.9 | 21 | 3.3
Cc1ccc(N2C(=O)N(CC(=O)NC(c3ccccc3)c3ccccc3)C(=O)C2C)cc1 (centres undefined) | / | / | / | / | 0.72 | -8 | / | 0.6 | 2 | 3.5
CC(C)(Oc1ccc(Cl)cc1)C(=O)Nc1ccc2oc(-c3ccncc3)nc2c1 | / | / | / | / | 0.77 | -12 | / | 0.7 | 13 | -22
O=C(Cc1cccc2ccccc12)NNC(=O)Nc1ccc(Cl)cc1 | -30* | -2.0* | -3.6* | -1.1 | 0.63 | -3 | i | 1.2 | 11 | 2.4
Cc1onc(NC(=O)c2ccc(Cl)cc2Cl)c1Br | 5 | 9 | -9.0 | -0.9 | 0.63 | 5 | i | -1.5 | 2 | 0.6
COc1cccc(COC(=O)CCNC(=O)c2ccc(Cl)cc2)c1OC | -7 | -10 | 1.5 | -1.8 | 0.69 | -3 | i | -1.6 | -2 | 5.4
CCCN1CCC(=NNc2ccc(S(=O)(=O)N3CCOCC3)cc2[N+](=O)[O-])CC1 | / | / | / | / | 0.7 | 11 | / | 0.9 | -13 | 44*
Cc1nc2ccc(Br)cn2c1C(=O)N/N=C\c1ccccc1Cl | 15 | 14 | 1.2 | -4.2 | / | / | i | 0.1 | -8 | /
CC1(C)CC2CC(C)(CN2C(=O)CN2C(=O)c3ccccc3C2=O)C1 (centres undefined) | / | / | / | / | 0.74 | 0 | / | 0.0 | -5 | 2.3
Cc1cc(NCc2ccccn2)n2ncc(-c3ccc(Cl)cc3)c2n1 | 16 | 13 | 3.9 | -1.2 | / | 60 | i | 0.0 | -3 | /
Cc1nc2c(C(=O)NCc3ccc4c(c3)OCO4)cnn2c(C)c1Cc1ccc(F)cc1Cl | / | / | / | / | 0.67 | 5 | / | -0.2 | 34 | -61
CN(CC(=O)Nc1ccc(Cl)cc1)C(=O)c1ccc(S(=O)(=O)Nc2ccccc2)cc1 | 3 | -25 | 0.4 | 0.5 | 0.61 | 4 | i | -0.3 | 4 | 2.2
COc1ccc(N(CCC#N)C(=O)/C(C#N)=C/c2cccs2)cc1 | -1 | -4 | 1.1 | 4.7 | 0.62 | -6 | i | 0.8 | -1 | 9.9
Cc1nc(SCC(=O)NCC2CCCO2)c2c(C)c(C)sc2n1 (centres undefined) | 2 | -9 | 3.8 | 1.2 | 0.69 | 2 | i | -0.2 | / | 3.6
Cc1ccc(-c2nc(-c3ccncc3)no2)cc1 | 6 | -2 | -3.6 | -1.8 | 0.69 | -3 | i | -8.6 | -16 | -0.9
O=C1c2ccccc2NC(c2ccccc2O)N1c1ccc(F)cc1 (centres undefined) | 7 | 11 | 3.8 | -5.4 | 0.65 | -1 | i | -5.9 | -4 | -201
CCc1ccc(/C=N/n2c(C3CCCCC3)n[nH]c2=S)cc1 | 8 | 4 | 5.0 | 1.5 | / | 1 | i | 0.4 | 13 | /
O=C(CNS(=O)(=O)c1cccc2nsnc12)NCCc1ccccc1 | 5 | 4 | 1.2 | 3.1 | 0.69 | -3 | i | 1.0 | 4 | 3.5
CC(=O)NC(CCS(C)(=O)=O)C(=O)Nc1ccccc1C (centres undefined) | / | / | / | / | 0.66 | -1 | / | -0.6 | -1 | 3.4
O=C1OCC/C1=C\c1ccc2c(c1)OCO2 | 3 | 6 | -0.9 | 0.9 | 0.64 | -3 | i | 1.0 | -4 | -3.2
COc1ccc(NC(=O)CN(C)CC(=O)N2CC(=O)Nc3ccccc32)cc1 | 2 | 1 | 0.7 | -1.2 | 0.71 | 2 | i | 0.5 | / | 2.7
O=C(c1ccccc1)c1ccc(-n2cnnc2)c([N+](=O)[O-])c1 | 4 | 1 | -4.5 | 4.8 | 0.67 | -6 | i | 0.6 | -8 | -1.3
O=C(COC(=O)c1ccccc1Nc1cccc(C(F)(F)F)c1)NCc1ccco1 | / | / | / | / | 0.71 | -9 | / | -0.2 | -2 | -8.3
O=C(O)c1cccc(-n2c(-c3cnccn3)n[nH]c2=S)c1 | 13 | 11 | 1.2 | -3.5 | 0.67 | 3 | i | 0.0 | -31 | 3.0
CCOC(=O)c1c(-c2ccccc2)oc2cc(Br)c(O)c(C=O)c12 | 12 | 14 | 0.7 | -1.3 | 0.69 | -1 | i | -0.3 | 4 | -2.0
COc1ccc(N2CCN(C(=O)CCn3nnc4ccccc43)CC2)cc1 | / | / | / | / | 0.67 | 1 | / | 3.7 | 4 | 3.2
COc1ccccc1C(=O)Nc1ccon1 | / | / | / | / | 0.66 | -4 | / | 0.4 | -6 | 1.9
O=C(Nc1ncc2c(n1)-c1ccccc1CC2)c1cccs1 | -18 | -26 | -4.4 | 0.2 | 0.66 | -15 | i | -0.2 | 9 | -3.3
O=C(CC(c1ccccc1)c1cc(Cl)ccc1O)N1CCOCC1 (centres undefined) | / | / | / | / | 0.7 | -3 | / | 0.1 | -5 | 2.0
CCCN1C(=O)C(O)(CC(=O)c2cccc(OC)c2)c2ccccc21 (centres undefined) | / | / | / | / | 0.75 | -4 | / | 1.5 | -21 | 0.5
COc1cccc2c1O/C(=N\O)C(C(=O)Nc1ccc(C)cc1)C2 (centres undefined) | 4 | 8 | -0.3 | -1.3 | / | 2 | i | -0.4 | -12 | /
CC1CCCN(C(=O)c2ccc3ncsc3c2)C1 (centres undefined) | 0 | 6 | -1.9 | -1.0 | 0.66 | / | i | / | / | 3.6
CC(=C/c1ccccc1)/C=N/NC(=O)c1cccs1 | 5 | 11 | -2.0 | 0.4 | / | 7 | i | -7.1 | / | /
O=C(O)C1C2C=CC(O2)C1C(=O)NCc1ccc2c(c1)OCO2 (centres undefined) | / | / | / | / | 0.69 | -3 | / | -0.2 | -4 | -2.3
Cc1ccc(C2=NN(CCC(=O)NC3CCCC3)C(=O)CC2)cc1 | 11 | 6 | -7.1 | 1.1 | 0.68 | -7 | i | 0.2 | -1 | 1.6
COc1ccc(NC(=O)N2CCCC(c3ccccc3)C2)cc1 (centres undefined) | -5 | -15 | -2.1 | 3.8 | 0.71 | -6 | i | 1.8 | -15 | -0.7
Cc1c(C#N)c2ccccc2n1CCOc1ccccc1F | -5 | 0 | 3.9 | ? | 0.73 | 5 | i | 0.6 | 13 | 1.4
CCOc1cc2c(cc1/C=C/c1noc(C)c1[N+](=O)[O-])OC(C)C2 (centres undefined) | 13 | 13 | 2.1 | 0.2 | / | 5 | i | 1.6 | 0 | /
CCOC(=O)N1CCN(C(=O)CCCn2nnnc2CN2CCC(C)CC2)CC1 | 3 | -11 | 2.0 | 0.5 | 0.7 | -1 | i | 0.3 | -19 | 5.3
COc1cc(S(=O)(=O)N2CCOCC2)cc(C(=O)c2nccn2C)c1OC | 10 | 6 | -0.3 | -0.5 | 0.68 | 2 | / | -0.2 | 1 | 3.8
CCCc1ccc(OCC(=O)NNC(=O)c2cccnc2)cc1 | 6 | 8 | 1.6 | -1.7 | 0.68 | -4 | i | 0.2 | 1 | 2.0
CNS(=O)(=O)c1ccc(C)c(S(=O)(=O)NC)c1 | / | / | / | / | 0.7 | -4 | / | 1.0 | -24 | 4.1

A portion of the library; rates above refer to the full screens.
